PD-1 reversal – activators reversing PD-1 mediated T-cell inhibition. 29,000 tested, under 10 active. activation, % (test concentration not listed). primary human CD4 T cells, PD-L1 beads, CellTiter-Glo 96 h;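 active = replicate mean of 50% or more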;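 note: 0% = median vehicle wells and 100% = positive control; 100 nL library stock added to about 50 µL; numbers are from one replicate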
MITF inh – blocks MITF activity. TRPM1 promoter luciferase, luminescence, 24 h. inhibition, % (concentration not given with the values). 37,000 tested, 0.28% active. AID 2240;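 active = most replicates at 85% or more, or half of them and the mean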;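 note: human melanocyte line stably carrying TRPM1 promoter luciferase reporter; 0% = vehicle wells and 100% = a positive control; the first replicate is given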
YB-1 expression – YB-1 expression inhibition; U2OS, qRT-PCR YB-1 vs CDIP delta delta Cp, 16 h; stronger effect = higher value; zero = DMSO, each unit about twofold; delta delta Cp (YB-1 minus CDIP) (test concentration not listed); 30,000 tested, 0.37% active; AID 434959;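 active = delta delta Cp rounded down to an integer at or above 3, about 3 SD of DMSO wells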;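 note: higher means less YB-1 transcript or more CDIP transcript relative to DMSO; stock transfer was 100 nL into about 100 µL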
Shh pathway inh – blocks Sonic Hedgehog signaling; Shh-LIGHT2 Gli-luciferase reporter, 30 h; inhibition, % (concentration not given with the values); 22,000 tested, 2.1% active; AID 2313;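 active = replicate mean of 65% or more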;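 note: pathway switched on by Shh-conditioned medium diluted 1 in 25 in low serum; 100 nL library stock added to about 40 µL; 0% = median of neutral wells and 100% = positive control level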
* hit, by the source's call; x = no result given. This is a subset, so the mix of outcomes need not match the whole.

Every second line gives: PD-1 reversal	MITF inh	YB-1 expression	Shh pathway inh
C[C@@H]1CN([C@H](C)CO)C(=O)Cc2cc(NC(=O)CCC(F)(F)F)ccc2O[C@@H]1CN(C)S(=O)(=O)c1ccc(F)cc1
→ 1.9	-1	0.35	14
C[C@@H]1CN([C@H](C)CO)C(=O)c2cc(NC(=O)CCCN(C)C)ccc2O[C@H]1CN(C)C(=O)Nc1ccccc1
→ 0.2	-6	-0.36	-8
C[C@@H]1CN([C@@H](C)CO)C(=O)c2cc(NS(=O)(=O)c3ccc(F)cc3)ccc2O[C@@H]1CN(C)C(=O)Nc1ccc(C(F)(F)F)cc1
→ -2.6	49	-0.37	x
O=C(COc1ccc(Cl)cc1Br)Nc1cccnc1
→ -0.6	-62	x	x
CCc1cc(C(=O)OC)c(NC(=S)Nc2ccc(OC)cc2[N+](=O)[O-])s1
→ -4.6	-5	x	x
Cc1ccc(S(=O)(=O)Nc2ccc3c(c2)CC(=O)N([C@@H](C)CO)C[C@@H](C)[C@@H](CN(C)Cc2ccc(C(=O)O)cc2)O3)cc1
→ -0.7	2	0.14	-9
COC(=O)c1ccc(NC(=O)C2Cc3ccccc3CN2S(=O)(=O)c2ccc(F)cc2)cc1 (stereo not drawn)
→ 1.3	-6	x	x
COC(=O)c1ccccc1NC(=O)CN(c1ccc(F)c(Cl)c1)S(C)(=O)=O
→ 0.3	-3	x	x
COc1ccc(NC(=O)CSc2nnc3sc4ccccc4n23)cc1
→ 1.2	-23	x	x
COc1cc(O)c2c(=O)c(OC)c(-c3ccc(OC)c(OC)c3)oc2c1
→ 0.3	-15	0.18	-5
C[C@@H]1CN([C@H](C)CO)C(=O)c2cccc(NS(=O)(=O)c3cn(C)cn3)c2O[C@@H]1CN(C)Cc1ccc(C(=O)Nc2ccccc2N)cc1
→ -0.2	-20	-0.34	x
Cc1noc(C)c1NC(=O)N(C)C[C@H]1Oc2c(NC(=O)c3cnccn3)cccc2C(=O)N([C@H](C)CO)C[C@H]1C
→ 1.1	-13	0.07	-8
CNC[C@@H]1Oc2ccc(NS(=O)(=O)c3cn(C)cn3)cc2C(=O)N([C@@H](C)CO)C[C@@H]1C
→ -0.2	-2	-0.1	-6
CC(C)NC(=O)Nc1ccc2c(c1)C(=O)N([C@@H](C)CO)C[C@H](C)[C@@H](CN(C)S(=O)(=O)c1ccccc1)O2
→ -0.3	-10	0.027	x
Cc1c(CC(=O)O)c(=O)oc2c(C)c(OCC(=O)O)ccc12
→ -0.6	12	x	x
COc1ncnc(NS(=O)(=O)c2ccc(N)cc2)c1OC
→ x	-3	-0.14	-40
CCOc1ccc(NC(=O)c2ccc(NS(=O)(=O)c3cccc4cccnc34)cc2)cc1
→ 0.4	-7	x	x
C[C@H](CO)N1C[C@H](C)[C@H](CN(C)Cc2ccc(Oc3ccccc3)cc2)Oc2ccc(NC(=O)CCN3CCOCC3)cc2C1=O
→ -0.1	-8	-0.49	49
COc1ccccc1OCCCSc1nc(-c2ccccc2)cc(=O)[nH]1
→ 0.5	-1	x	x
Cc1ccc(S(=O)(=O)Nc2ccc3c(c2)CC(=O)N([C@@H](C)CO)C[C@H](C)[C@@H](CN(C)CC2CCCCC2)O3)cc1
→ -2.0	15	0.14	9

Four entries already listed, ordered by heavy-atom count, lowest first.
Every second line gives: PD-1 reversal	MITF inh	YB-1 expression	Shh pathway inh
Cc1c(CC(=O)O)c(=O)oc2c(C)c(OCC(=O)O)ccc12
→ -0.6	12	x	x
COc1ccccc1OCCCSc1nc(-c2ccccc2)cc(=O)[nH]1
→ 0.5	-1	x	x
CCOc1ccc(NC(=O)c2ccc(NS(=O)(=O)c3cccc4cccnc34)cc2)cc1
→ 0.4	-7	x	x
Cc1noc(C)c1NC(=O)N(C)C[C@H]1Oc2c(NC(=O)c3cnccn3)cccc2C(=O)N([C@H](C)CO)C[C@H]1C
→ 1.1	-13	0.07	-8

Following part:
Every second line gives: PD-1 reversal	MITF inh	YB-1 expression	Shh pathway inh
CC(C)NC(=O)N(C)C[C@H]1Oc2c(NS(C)(=O)=O)cccc2C(=O)N([C@@H](C)CO)C[C@@H]1C
→ 2.0	-5	-0.25	21
C[C@@H]1CN([C@@H](C)CO)C(=O)c2cccc(NC(=O)C3CCCCC3)c2O[C@H]1CN(C)CC1CCCCC1
→ x	13	0.097	-21
Cc1noc(C)c1S(=O)(=O)Nc1ccc2c(c1)C(=O)N([C@H](C)CO)C[C@H](C)[C@H](CN(C)S(=O)(=O)c1cn(C)cn1)OCCCC[C@@H](C)O2
→ 2.8	-25	0.45	-10
Cc1cc(Cl)c(S(=O)(=O)N2CCCCC2)cc1OCC(N)=O
→ 0.5	-78	x	x
C[C@H](CO)N1C[C@H](C)[C@H](CN(C)Cc2ccc(C(=O)Nc3ccccc3N)cc2)Oc2c(NS(=O)(=O)c3ccc(F)cc3)cccc2C1=O
→ -1.5	21	-0.54	x
O=C(O)c1ccc(CNC(=O)c2cccnc2C(=O)O)cc1
→ -0.4	6	x	x
Cc1ccc(S(=O)(=O)Nc2cccc3c2O[C@@H](CN(C)CC2CC2)[C@H](C)CN([C@H](C)CO)C3=O)cc1
→ x	-8	-0.7	-44
COc1ccc(NC(=O)Cn2cnc3ccccc3c2=O)cc1OC
→ 1.0	-5	x	x
C[C@H](CO)N1C[C@H](C)[C@H](CN(C)Cc2ccc(Cl)c(Cl)c2)Oc2c(NC(=O)c3ccncc3)cccc2C1=O
→ -1.2	1	0.45	-3
Cc1ccc(N2C(=O)C(N3C(=O)c4ccccc4C3=O)C2c2ccc(N(C)C)cc2)cc1Cl (stereo not drawn)
→ -0.1	-2	-0.53	x
C[C@@H]1CN([C@H](C)CO)C(=O)c2cccc(NC(=O)NC3CCCCC3)c2O[C@@H]1CN(C)C(=O)Nc1ccc(F)cc1
→ x	7	-0.006	-7
C[C@@H]1CN([C@H](C)CO)C(=O)c2cc(NC(=O)CCC(F)(F)F)ccc2O[C@@H]1CN(C)CC1CCCCC1
→ 1.2	-1	0.077	x
C[C@@H]1CCCCO[C@H](CN(C)S(=O)(=O)c2ccc(F)cc2)[C@@H](C)CN([C@H](C)CO)C(=O)c2cc(NC(=O)Nc3ccc4c(c3)OCO4)ccc2O1
→ x	-2	-0.31	10
Cc1noc(C)c1NC(=O)Nc1ccc2c(c1)CC(=O)N([C@@H](C)CO)C[C@H](C)[C@H](CN(C)S(C)(=O)=O)O2
→ 0.7	-2	0.074	x
Cc1noc(C)c1NC(=O)Nc1ccc2c(c1)CC(=O)N([C@H](C)CO)C[C@H](C)[C@H](CN(C)S(=O)(=O)c1c(C)noc1C)O2
→ 1.2	-5	-0.023	42
COc1ccc2c(c1OC)CN(C)CCc1cc3c(cc1C(=O)C2)OCO3
→ -1.9	6	0.0093	5
COC(=O)c1cc(OC)c(OC)cc1NC(=O)COc1ccccc1Cl
→ -5.1	-13	x	x
C[C@@H]1CN([C@@H](C)CO)C(=O)c2cc(NS(=O)(=O)c3ccccc3)ccc2O[C@@H]1CN(C)Cc1ccc(Cl)c(Cl)c1
→ -1.6	64	-0.14	25
CC(C)NC(=O)N(C)C[C@@H]1Oc2ccc(NC(=O)Nc3ccccc3)cc2C(=O)N([C@@H](C)CO)C[C@@H]1C
→ 0.2	-6	0.13	-4
COc1ccc(NC(=O)N(C)C[C@H]2Oc3c(NC(=O)Nc4ccccc4)cccc3C(=O)N([C@H](C)CO)C[C@H]2C)cc1
→ 0.9	-5	0.16	-48

The results go on.
canonical_smiles | PD-1 reversal | MITF inh | YB-1 expression | Shh pathway inh
O=C(Cn1cnc2sc(-c3ccccc3)cc2c1=O)Nc1ccc(F)c(Cl)c1 | 0.5 | -19 | x | x
C[C@@H]1CN([C@@H](C)CO)C(=O)c2cc(NC(=O)Cn3cnnn3)ccc2O[C@@H]1CN(C)S(=O)(=O)c1ccc(Cl)cc1 | 0.4 | 1 | -0.097 | -14
CC(C)NC(=O)N(C)C[C@@H]1Oc2c(NC(=O)c3nc4ccccc4s3)cccc2C(=O)N([C@H](C)CO)C[C@H]1C | 0.4 | 2 | 0.2 | 9
CCc1ccc(NS(=O)(=O)c2ccc(OC)cc2)cc1 | 3.0 | 16 | 0.16 | -17
Cc1ccc(S(=O)(=O)Nc2ccc3c(c2)C(=O)N([C@@H](C)CO)C[C@@H](C)[C@H](CN(C)S(=O)(=O)c2ccc(C)cc2)O3)cc1 | -1.1 | -3 | 0.18 | x
CCN(c1ccccc1)S(=O)(=O)c1ccc(C)cc1 | -0.5 | 13 | -0.54 | -25
C[C@H](CO)N1C[C@H](C)[C@@H](CN(C)Cc2ccc(-c3ccccc3)cc2)Oc2c(NS(=O)(=O)c3ccccc3)cccc2C1=O | -0.5 | -2 | -0.24 | 0
C[C@@H]1CCCCO[C@H](CN(C)Cc2ccccc2)[C@@H](C)CN([C@H](C)CO)C(=O)c2cc(N(C)C)ccc2O1 | 0.7 | -4 | 0.093 | -54
C[C@@H]1CCCCO[C@@H](CN(C)CC2CC2)[C@@H](C)CN([C@H](C)CO)C(=O)c2cc(NS(=O)(=O)c3ccc(Cl)cc3)ccc2O1 | x | -9 | 0.4 | 1
Cc1noc(C)c1NC(=O)N(C)C[C@@H]1Oc2ccc(NS(=O)(=O)c3ccccc3)cc2C(=O)N([C@H](C)CO)C[C@H]1C | 1.0 | -13 | 0.13 | 8
CC(C)C[C@H](NC(=O)[C@@H](O)[C@H](N)Cc1ccccc1)C(=O)O | x | -15 | -0.09 | 5
Cc1cc(SCC(=O)Nc2ccccc2)nc2c(C)cccc12 | -0.5 | 1 | x | x
C[C@H](CO)N1C[C@H](C)[C@H](CN(C)CC2CC2)Oc2ccc(NS(=O)(=O)c3cccs3)cc2CC1=O | 0.5 | 1 | 0.018 | -7
C[C@@H]1CN([C@H](C)CO)C(=O)Cc2cc(NS(C)(=O)=O)ccc2O[C@H]1CN(C)Cc1ccc(Cl)c(Cl)c1 | 1.3 | -8 | 0.069 | -24
CNC[C@H]1Oc2c(NC(=O)Nc3ccccc3)cccc2C(=O)N([C@@H](C)CO)C[C@H]1C | x | 4 | -0.0022 | x
Cc1noc(C)c1NC(=O)Nc1ccc2c(c1)CC(=O)N([C@@H](C)CO)C[C@@H](C)[C@@H](CN(C)C(=O)Nc1ccccc1)O2 | 1.2 | -7 | -0.57 | 9
Cc1ccc(S(=O)(=O)Nc2ccc3c(c2)C(=O)N([C@H](C)CO)C[C@@H](C)[C@H](CN(C)Cc2ccc(C(F)(F)F)cc2)O3)cc1 | 0.9 | 1 | 0.17 | -22
Cc1ccc(-n2c(SCC(=O)Nc3cc(C(F)(F)F)ccc3Cl)nnc2-c2ccco2)cc1 | -1.8 | 8 | x | x
CCOc1ccccc1OCc1nn2c(-c3ccc(C)cc3)nnc2s1 | 0.7 | -1 | x | x
Cc1cc([N+](=O)[O-])ccc1NC(=O)CN1C(=O)COc2ccc(Cl)cc21 | -0.8 | -3 | x | x
COc1ccccc1CC(=O)Nc1cccc(NC(C)=O)c1 | -0.3 | 15 | -0.067 | -16
CN(C)c1ccc(Cc2ccc(N(C)C)cc2)cc1 | -0.2 | 5 | -0.27 | 43
C[C@@H]1CCCCO[C@@H](CN(C)S(C)(=O)=O)[C@@H](C)CN([C@H](C)CO)C(=O)c2cc(NC(=O)c3ccccc3)ccc2O1 | -0.7 | -4 | -2.4 | -9
CC12CC3(C)CC(C)(C1)CC(C(=O)O)(C2)C3 | 0.4 | 2 | -0.69 | 17
CC(C)NC(=O)Nc1ccc2c(c1)C(=O)N([C@H](C)CO)C[C@@H](C)[C@H](CN(C)C(=O)NC(C)C)O2 | -0.4 | 9 | -0.48 | x
Cc1noc(C)c1NC(=O)N(C)C[C@H]1Oc2ccc(NC(=O)Cc3cn(C)c4ccccc34)cc2C(=O)N([C@H](C)CO)C[C@H]1C | 0.6 | 3 | 0.1 | x
COc1ccc(NC(=O)Nc2ccc3c(c2)CC(=O)N([C@@H](C)CO)C[C@@H](C)[C@@H](CN(C)Cc2ccc(C(=O)Nc4ccccc4N)cc2)O3)cc1 | 1.4 | -9 | 0.15 | x
C[C@@H]1CN([C@H](C)CO)C(=O)c2cc(NC(=O)c3ccncc3)ccc2O[C@@H]1CN(C)S(=O)(=O)c1cn(C)cn1 | 1.3 | 3 | -0.096 | -14
COc1ccc(NC(=O)C(C)N(c2cc(C)cc(C)c2)S(C)(=O)=O)c(OC)c1 (stereo not drawn) | 0.8 | 8 | x | x
C[C@H](CO)N1C[C@H](C)[C@@H](CN(C)Cc2ccc3c(c2)OCO3)Oc2ccc(NC(=O)Cn3cnnn3)cc2C1=O | 4.5 | 15 | -0.78 | x
COc1ccc(S(=O)(=O)N(C)C[C@H]2Oc3c(NC(=O)Nc4cccc5ccccc45)cccc3C(=O)N([C@H](C)CO)C[C@H]2C)cc1 | x | 7 | 0.18 | -25
Cc1noc(C)c1S(=O)(=O)Nc1ccc2c(c1)CC(=O)N([C@H](C)CO)C[C@@H](C)[C@H](CN(C)Cc1ccc(Oc3ccccc3)cc1)O2 | x | 11 | -0.24 | x
C[C@H]1CN([C@@H](C)CO)C(=O)c2cccc(NS(=O)(=O)c3ccc(Cl)cc3)c2O[C@H]1CN(C)Cc1ccc(C(=O)Nc2ccccc2N)cc1 | -1.3 | 3 | -0.11 | x

Compound activity deposited in PubChem BioAssay by Broad Institute.
